# PrP 5UTR inh = inhibition of PrP 5' UTR reporter expression; cell-based PrP 5' UTR mRNA reporter, plate reader; inhibition, % (no concentration beside the values); 0.35% of 340,000 active;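 active means every replicate at 50% or more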;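 further: 0 = median of the neutral control wells; tested in H4 reporter cells; numbers are from one replicate; inactives centre near -14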
# Mtb hypoxia inh = PubChem AID 1159583; M. tuberculosis hypoxia-regulated fluorescent reporter, fluorescence; fluorescence inhibition, % (test concentration not listed); 0.1% of 300,000 active;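 active means 35 to 45% if threefold the growth effect, above 45% if 1.5-fold the growth effect; inactive means the rest, general growth blockers included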;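 further: wells of about 50 µL received 100 nL stock; 0% = vehicle wells and 100% = reference inhibitor wells; whole bacteria with a GFP reporter of the hypoxia response; strong numbers were not always called active; many hits fall short of the cut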
# Sa ugtP lethal = growth inhibition of ugtP-null S. aureus, primary screen, RN4220 ugtP deletion, OD600. growth inhibition, % (test concentration not listed). 0.54% of 330,000 active. 16 h; some inactives read as strong as hits. AID 1259309, 2017;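 active means z-score under -3 and OD600 up to 0.15 on both plates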;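 further: plate controls were untreated wells for no effect and antibiotic for full effect; wells of about 80 µL received 100 nL stock; the first replicate is given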
# Autofluor counter = counter-screen for toxin protease inhibitors: compound fluorescence. compound autofluorescence counterscreen, microsphere flow cytometry; active compounds read high. fluorescence intensity (no concentration beside the values). 3.1% of 360,000 active. AID 624483;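 active means at least 3 SD above the mean of all compounds, about 16000 in these data; inconclusive means too few beads counted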;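 further: 100 nL of 1 mM stock went into each well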
# RN4220 kill = growth inhibition of S. aureus RN4220, primary screen, OD600; AID 1259311, 2017; 16 h; 0.33% of 330,000 active; inhibition, % (no concentration beside the values);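 active means z-score of -3 or lower and OD600 up to 0.18 on both plates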;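 further: plate controls were untreated cells for no effect and reference antibiotic for full effect; stock transfer was 100 nL into about 80 µL; one replicate is shown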
# BJeLR viability = MLPCN primary cell-based screen for lethality selective to Ras in HRASV12 cells; 0.17% of 300,000 active; AID 1554, 2009; BJeLR (HRASV12) viability, CellTiter-Glo ATP luminescence, 48 h; reference of the scale not given here; inhibition, % (test concentration not listed);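 active means replicate mean above 50%; inconclusive means above 50% but judged a plate artefact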;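 further: 50 nL library stock added to about 25 µL; numbers are from one replicate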
# Mtb hypoxia inh growth = also measured in Mtb hypoxia inh; calls as there; growth inhibition, %; measured here: M. tuberculosis growth (absorbance);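 0% = vehicle and 100% = reference antibiotic; read after six days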
# Starred values were filed as active, the others as inactive; ? = inconclusive; / = no result given.
SMILES,PrP 5UTR inh,Mtb hypoxia inh,Mtb hypoxia inh growth,Sa ugtP lethal,Autofluor counter,RN4220 kill,BJeLR viability
Cc1ccccc1C(=O)NC1CCN(CC(=O)N2CCCCC2C)CC1 (configuration not stated),-15,13,-2,-5,3940,5.9,-2
CC(=O)Nc1ccc(C=NNc2nc3ccccc3s2)cc1,/,5,10,17,/,7.7,/
COc1ccc(Cc2nc3ccc(C(=O)N4CCCC4)cc3o2)cc1,-58,-1,-3,8,4086,1.2,-1
CCOC(=O)CC1c2cc(F)ccc2S(=O)(=O)N1C(C)(C)C (configuration not stated),/,0,1,-2,/,1.8,/
COc1ccc(NC(=O)CSC(C)c2nc3ccccc3c(=O)[nH]2)cc1 (configuration not stated),-17,12,9,-1,5743,3.0,3
CCN1C(=NCc2ccco2)NC(c2cccc(C(F)(F)F)c2)C(C(=O)OC)=C1C (configuration not stated),/,-2,13,-2,/,-0.9,/
CCCCOc1ccc(C(=O)NCC(=O)NCC(=O)OCC)cc1,0,3,10,-1,9447,0.5,5
CN(CC(=O)Nc1ccc(Cl)c(Cl)c1)CC(=O)Nc1ccc2c(c1)OCO2,-4,10,4,-18,2981,-1.9,/
O=c1cc(NC2CCCCCC2)[nH]c(=O)[nH]1,1,/,/,-3,4607,-0.4,-7
Cc1ccc(S(=O)(=O)Nc2ccc3c(c2)nc(CCN2CCN(c4ccccn4)CC2)n3C)cc1,-23,10,13,12,5755,5.2,0
COC(=O)c1sccc1NC(=O)c1csc(C)c1,3,-6,-6,-3,16143*,17,11
NC(=O)C1CCN(c2cc(N3CCOCC3)ccc2[N+](=O)[O-])CC1,3,14,7,3,3200,3.4,-3
CNCC(O)c1cccc(OC(=O)c2ccccc2C)c1 (configuration not stated),-8,/,/,15,3621,11,/
COc1ccc(C(O)c2ncc(C(F)(F)F)cc2Cl)cc1 (configuration not stated),-20,9,0,-1,4330,0.5,10
CC(Sc1n[nH]c(=O)n1Cc1ccccc1)C(=O)NCC1CCCO1 (configuration not stated),-12,5,0,20,/,3.7,/
CCN(CC)C(=O)CSc1nnc(-c2ccco2)n1N,-32,11,6,-11,17289*,6.3,4
Cc1ccc(CSc2nnc(SCC(=O)NN=C/C=C/c3ccco3)s2)cc1,/,10,8,5,/,3.3,/
CCc1[nH]nc(C(=O)N2CCCC(CNS(=O)(=O)c3cccs3)C2)c1C (configuration not stated),-18,2,8,4,4186,4.3,-22
O=C(/C(=N\Nc1ccc([N+](=O)[O-])cc1)Sc1nnnn1-c1ccccc1)c1ccccc1,-12,/,/,/,6935,/,9
O=C(CCCc1ccccc1)Nc1cccc([N+](=O)[O-])c1,-47,9,3,2,3059,2.6,-4
COc1cc(C)ccc1S(=O)(=O)NC1CC(C)(C)NC(C)(C)C1,-15,/,/,/,3511,/,5
C/C(=N\NC(=O)c1ccc2c(c1)OCO2)c1cccnc1,-36,/,/,/,6004,/,3
Nc1c(C(=O)c2ccccc2)sc(Nc2ccccc2)c1S(=O)(=O)c1ccccc1,-23,10,3,4,?,-1.2,-8
CCOc1ccc2nc(-c3ccc(OC)c(OC)c3)cc(C(=O)O)c2c1,-8,-3,2,0,3043,4.0,11
Nc1cccc2c(=O)[nH][nH]c(=O)c12,-15,5,4,7,3739,1.9,/
CCOC(=O)c1c(C)n(CC(O)CN(C)C)c2cc(Br)c(OC)cc12 (configuration not stated),1,19,8,-2,2627,0.8,-9
CCCn1c(N)c(N(CCOC)C(=O)c2cc3ccccc3cc2OC)c(=O)[nH]c1=O,-11,6,2,-4,3698,1.0,/
CC(C)(C)c1nnc(NC(=O)NS(=O)(=O)c2ccccc2)s1,-26,/,/,/,4796,/,3
O=C(NCc1ccccc1)c1nncc(-c2ccccc2)n1,-16,7,9,1,2986,6.7,/
CCN(C(=O)c1ccc(N2CC3CC(C2)c2cccc(=O)n2C3)c(NC(=O)c2ccncc2)c1)c1cccc(C)c1 (configuration not stated),1,-5,-5,-2,4329,0.5,0
Cc1ccc(NC(=O)C2CC(=O)N(C(C)C)C2)cc1Cl (configuration not stated),-19,16,7,8,4439,-1.9,-8
O=C(O)CSCC(=O)Nc1ccccc1,-19,-4,-4,3,16554*,0.2,6
O=C(C[n+]1cc(-c2ccc(Cl)cc2)n2c1CCC2)Nc1nc(-c2ccc(F)cc2)cs1,-27,25,30,-31,3997,-2.1,-5
COc1ccc(CCNC(=O)C(=O)c2c(C)[nH]c3ccccc23)cc1,-19,15,3,13,3934,1.5,-5
CC(C)NC(=O)c1nn(C)c2ccccc12,-21,17,9,13,2476,5.0,-3
CCOC(=O)c1ccc(NC(=O)Cn2nnc(-c3ccccc3C)n2)cc1,-25,/,/,0,4877,-14,-4
O=S(=O)(CCN1CCN(c2ccccn2)CC1)c1ccc(F)cc1,-17,-4,4,5,4164,5.3,-1
Fc1ccc(N2Cc3ccsc3C=N2)cc1,-27,8,5,8,5500,2.2,5
O=C(C1=C[C@H](c2ccc(C(F)(F)F)cc2)C[C@H](OCCCCO)O1)N1CCOCC1,-6,/,/,/,4047,/,5
COc1ccc(CNC(=O)COC(=O)c2n[nH]c3ccccc23)cc1,-15,/,/,16,4524,-7.0,0

# Another view of two compounds above:
smiles | PrP 5UTR inh | Mtb hypoxia inh | Mtb hypoxia inh growth | Sa ugtP lethal | Autofluor counter | RN4220 kill | BJeLR viability
Fc1ccc(N2Cc3ccsc3C=N2)cc1 | -27 | 8 | 5 | 8 | 5500 | 2.2 | 5
CC(C)NC(=O)c1nn(C)c2ccccc12 | -21 | 17 | 9 | 13 | 2476 | 5.0 | -3

# Next compounds follow:
SMILES,PrP 5UTR inh,Mtb hypoxia inh,Mtb hypoxia inh growth,Sa ugtP lethal,Autofluor counter,RN4220 kill,BJeLR viability
COc1ccc(C(=O)NNC(=O)Cc2ccc([N+](=O)[O-])cc2)cc1,-19,2,0,4,2466,3.9,-2
COc1cc2c3nnc(-c4ccc(F)cc4)c-3cn(Cc3ccccc3)c2cc1OC,-16,/,/,/,6384,/,10
CC(=NNS(=O)(=O)c1ccc([N+](=O)[O-])cc1)c1ccc(C)cc1,-20,5,5,15,4325,10,/
Cc1cccc(OCCCCCN2CCOCC2)c1,-18,15,7,10,3187,1.1,3
Cc1cc(C(N)=O)c2ccccc2n1,-30,3,3,10,13135,5.5,0
CCC1=Nc2cc(C(=O)NCCCN3CCN(C)CC3)ccc2Sc2ccccc21,-7,4,5,6,5790,-1.4,3
CC(=O)NC(CC(=O)Nc1ccc(S(=O)(=O)Nc2nccs2)cc1)c1ccccc1 (configuration not stated),-13,-4,-1,-10,?,-6.0,/
COc1cccc(-c2cc3nc4c(c(N5CCC6(CC5)OCCO6)n3n2)CCCC4)c1,-17,-1,1,-21,10697,23,-19
Cc1ccc(OCCC(=O)OCC(=O)Nc2ccc(C)cc2Cl)cc1,-25,0,3,2,5565,-1.1,10
COCCCNC(=O)CN1C(=O)CSc2ccc(S(=O)(=O)N3CCOCC3)cc21,-11,0,4,10,5098,6.7,8
CN1CCN(c2ccc([N+](=O)[O-])cc2/C=N/NC(=O)c2ccc(F)cc2)CC1,-15,/,/,/,3553,/,4
CC(C)n1ncc2c(C(=O)Nc3ccc(S(C)(=O)=O)cc3)cc(C3CC3)nc21,-9,8,8,7,8701,0.6,/
N#Cc1c(Cl)nsc1NCCN1CCOCC1,-9,3,3,5,3255,2.2,-5
CCN1C(=O)C(CC(=O)Nc2ccc(F)cc2)N(Cc2ccco2)C1=S (configuration not stated),-2,-8,-5,8,3164,2.2,-6
CC(=O)c1ccc2c(c1)CCN2,-9,3,-1,-1,2910,-0.2,/
CC(=O)Nc1ccc(S(=O)(=O)c2ccc(N)cc2)cc1,-4,13,3,-2,5839,5.3,1
Cc1ccc(OC(=O)COc2ccccc2)c(-n2nc3ccccc3n2)c1,-108,/,/,-7,3174,14,5
COc1ccc(/C=N/NC(=S)NCC2CCCO2)cc1 (configuration not stated),-12,/,/,/,4655,/,-5
CCCCCCn1c(=O)c(C(=O)Nc2nnc(C)s2)c(O)c2ccccc21,/,3,1,0,/,-0.3,-6
Cc1ccc(SCc2ccc(C(=O)NCc3cccnc3)cc2)cc1,-6,10,7,4,10925,5.1,-2
CCC(C(=O)OC)n1cnc2c(cnn2-c2ccc(Cl)cc2)c1=O (configuration not stated),-13,5,10,-2,3365,0.8,-10
O=C(COC(=O)/C=C/c1cccc([N+](=O)[O-])c1)NCc1ccco1,-25,/,/,/,4328,/,0
COc1ccc(-c2csc3ncn(CC(=O)N4CCOCC4)c(=O)c23)cc1,-7,/,/,/,2239,/,-12
O=C(O)CC/C(=N/NC(=O)CNC(=O)Cc1ccccc1)c1ccccc1,-19,/,/,/,4117,/,-3
S=c1[nH]nc(-c2cc(-c3ccccc3)n[nH]2)n1N=Cc1ccccc1,/,1,-3,-4,/,-25,/
COc1cc(OC)c(OC)cc1CN(C)CCc1ccccn1,2,/,/,4,4706,0.2,-3
CCN(C(=O)c1ccco1)C1C2CC3CC(C2)CC1C3 (configuration not stated),-4,7,1,1,4202,3.7,-5
C#CCOCCOCCOCCNc1nc(N2CCN(C(=O)C(C)n3cc(CCC(=O)O)nn3)CC2)nc(N2CCN(C(=O)C(Cc3ccc(O)cc3)n3cc(CCO)nn3)CC2)n1 (configuration not stated),/,-2,9,-7,/,-0.7,/
O=C(NCc1ccccc1F)c1ccc2c(c1)OCO2,-19,/,/,13,16095,17,4
CC(=O)c1ccc(Sc2ccccc2)cc1,-13,3,18,1,22491*,15,-2
O=C(CSc1nnnn1C1CCCCC1)Nc1cccc(NC(=O)c2ccco2)c1,-12,16,10,1,4761,2.5,7
CC(C)Nc1nnc(SCC(=O)c2c[nH]c3ccccc23)s1,-25,6,8,-7,10599,3.4,4
COc1ccc(N2CCN(c3nc4c(c(=O)n(C)c(=O)n4C)n3CCCc3ccccc3)CC2)cc1,-3,7,-3,-1,3044,4.1,12
Cc1noc(C)c1COC(=O)CN(C)S(=O)(=O)c1ccc(Cl)cc1,-6,3,5,2,9694,2.3,6
O=C(c1ccc(Cl)c(S(=O)(=O)N2CCOCC2)c1)N1CCCCCC1,-7,-1,-7,3,3329,1.3,2
O=C1CN(S(=O)(=O)c2cccc(Cl)c2Cl)CCN1,-2,1,-7,4,5107,1.6,/
CC(C)(C)c1ccc(-c2noc(-c3ccno3)n2)cc1,-175,6,9,40,/,1.5,0
CC1S/C(=N/N=C/c2ccco2)N(Cc2ccc(F)cc2)C1=O (configuration not stated),-23,/,/,/,4285,/,2
CC1(C)CC(NS(=O)(=O)c2ccc(C(C)(C)C)cc2)CC(C)(C)N1,-16,/,/,/,4223,/,3
CNC(=S)NNC(=O)c1ccc(C(C)(C)C)cc1,-42,-7,2,-9,3823,-7.6,-8
COc1ccc(S(=O)(=O)Nc2cc(S(=O)(=O)N3CCOCC3)ccc2OC)cc1,-10,5,3,5,6556,3.6,/
COCCN1C(=O)N[C@@H](c2cccc(C(F)(F)F)c2)[C@H](C(=O)OC)[C@H]1C,-22,/,/,/,3639,/,-3
COc1cccc(C(=O)COC(=O)C(C)N2C(=O)c3ccccc3C2=O)c1 (configuration not stated),0,7,0,0,8957,1.0,-2
O=C(Nc1ccccc1)C1=C[C@@H](c2coc3ccccc3c2=O)C[C@@H](OCc2ccc(CO)cc2)O1,-13,/,/,/,2894,/,2
COc1ccccc1C1C(C#N)=C(N)Oc2c1c(-c1ccccc1)nn2-c1ccccc1 (configuration not stated),-32,2,6,1,9269,7.8,6
O=c1c2ccccc2nc2n1C(CSCc1ccccc1)CS2 (configuration not stated),-18,/,/,16,2801,1.0,3
CC1CCCN(C(=O)Cn2nnc(-c3ccc(S(C)(=O)=O)cc3)n2)C1 (configuration not stated),-16,3,12,15,3688,6.5,-20
COC(=O)CNC(=O)COC(=O)/C=C/c1ccc2ccccc2n1,-27,11,15,2,4128,4.2,-7

# Single values from the list.
# Value for COc1ccc(S(=O)(=O)Nc2cc(S(=O)(=O)N3CCOCC3)ccc2OC)cc1 under PrP 5UTR inh: -10
# Value for COc1cccc(C(=O)COC(=O)C(C)N2C(=O)c3ccccc3C2=O)c1 (configuration not stated) under Sa ugtP lethal: 0
# Value for O=C(Nc1ccccc1)C1=C[C@@H](c2coc3ccccc3c2=O)C[C@@H](OCc2ccc(CO)cc2)O1 under BJeLR viability: 2
# Value for COC(=O)CNC(=O)COC(=O)/C=C/c1ccc2ccccc2n1 under Sa ugtP lethal: 2
# Value for COCCN1C(=O)N[C@@H](c2cccc(C(F)(F)F)c2)[C@H](C(=O)OC)[C@H]1C under Autofluor counter: 3639
# Value for O=c1c2ccccc2nc2n1C(CSCc1ccccc1)CS2 (configuration not stated) under Sa ugtP lethal: 16
